Screening results from PubChem.
SARS PLpro yeast – inhibitors of SARS-CoV papain-like protease in yeast. S. cerevisiae expressing SARS-CoV PLpro, growth rescue; control for the full effect not named in the record. hit rate 0.19% among 330,000. Potency, µM (highest dose often 32.9 µM), for inactives: top-dose activity, positive = growth rescue; active means well fitted rising curve with a large enough effect; inconclusive means small, poorly fitted or top-dose-only effect; inactive means no such curve, though single readings can be large or run the other way; note: 0% is about no effect; nearly all actives have a fitted effect of over 55% in size; growth read by luminescence after 48 h
NS1 function inh – inhibitors of influenza NS1 protein function; S. cerevisiae slowed by influenza A NS1, growth recovery by OD600; Potency, µM (top dose mostly 46.1 µM), for the others: top-dose activity, positive = more growth; hit rate 0.4% among 270,000; AID 2326; active means well fitted rising curve with a large enough effect; inconclusive means small, poorly fitted or top-dose-only effect; inactive means no such curve, though single readings can be large or run the other way; note: nearly all actives have a fitted effect of over 50% in size
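Read-out: OD600 growth recovery of NS1-expressing budding yeast. Cells grown overnight at 30C in -URA glucose medium, washed, resuspended and diluted 1:100 in 2% galactose assay medium, pH 6.0. Same strain lacking NS1 served as positive control.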
MARV entry inh – inhibitors of Marburg virus binding or cell entry. Marburg virus pseudotyped entry inhibition, cell reporter; control for the full effect not named in the record; about a third of the inactives were read at about 46 µM. Potency, µM (titrated, usually from 37.8 µM), inactives show at the top dose activity change, negative = inhibition, usual class: inhibitors. hit rate 1.8% among 300,000; active = well fitted inhibition curve with a large enough effect; inconclusive = small, poorly fitted or top-dose-only effect, or effect the other way; inactive = flat fitted curve, though single readings scatter; tested in HEK293 cells; about a fifth of its hits are not listed in these tables; note: % is set by controls: 0 for no effect and ±100 for the full control effect; luciferase read-out
Cruzain inh Det – cruzain (T. cruzi) inhibition with detergent; hit rate 0.43% among 200,000; purified cruzain, Z-FR-AMC fluorescence, 0.01% Triton; Potency, µM, inactives show max response, negative = inhibition, usual class: inhibitors;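 note: plate controls were neutral wells for no effect and buffer without enzyme for full effect; nearly all actives have a fitted effect of over 40% in size; top concentration of the series not given in the record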
Target sequence (P25779 123-467 limits assumed): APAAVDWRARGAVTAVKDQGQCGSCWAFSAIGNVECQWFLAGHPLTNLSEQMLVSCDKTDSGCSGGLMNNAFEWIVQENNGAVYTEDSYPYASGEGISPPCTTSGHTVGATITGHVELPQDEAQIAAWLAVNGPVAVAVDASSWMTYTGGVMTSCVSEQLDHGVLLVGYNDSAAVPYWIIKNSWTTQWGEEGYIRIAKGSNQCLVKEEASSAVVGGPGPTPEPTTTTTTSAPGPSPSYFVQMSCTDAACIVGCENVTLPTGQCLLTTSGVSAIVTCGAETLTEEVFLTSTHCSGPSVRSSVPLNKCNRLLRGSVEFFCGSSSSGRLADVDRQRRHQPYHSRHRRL
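15 min RT preincubation of 1.5 nM cruzain with compound, then 2 uM Z-FR-AMC added; kinetic AMC fluorescence, 60 s delta. Triton X-100 0.01%, pH 5.5.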
RE007 growth inh – less growth of the S. pombe RE007 Vpr strain. Potency, µM (series often up to 92.2 µM), inactives show at the highest dose activity change, negative = less growth. S. pombe RE007 Vpr strain, BacTiter-Glo ATP luminescence, 24 h; control for the full effect not named in the record. hit rate 0.21% among 360,000; active = well fitted falling curve with a large enough effect; inconclusive = small, poorly fitted or top-dose-only effect; inactive = no such curve, though single readings can be large or run the other way;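 note: % is set by controls: 0 for no effect and ±100 for the full control effect; nearly all actives have a fitted effect of over 50% in size; the assay follows cell death caused by Vpr and the record does not say whether a fall means rescue or toxicity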
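Fission yeast RE007 carrying one integrated HIV-1 vpr copy, seeded at OD 0.01 in PMG+AL medium with 23 nL pinned compound. Grown 24 h at 30 degrees; viability read by BacTiter-Glo luminescence after 5 min.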
StopGo reporter – lowers the luciferase signal of an FMDV 2A StopGo reporter; human cells with a luciferase reporter of 2A StopGo recoding; control for the full effect not named in the record; Potency, µM (highest dose often 57.9 µM), for the others: at the highest dose signal change, negative = less light; hit rate 1.2% among 410,000; AID 1159524; active = well fitted falling curve with a large enough effect; inconclusive = small, poorly fitted or top-dose-only effect; inactive = no such curve, though single readings can be large or run the other way; tested in HEK293T cells; note: % is set by controls: 0 for no effect and ±100 for the full control effect; nearly all actives have a fitted effect of over 45% in size; luciferase light after 4 h
Cruzain noTriton – inhibitors of Trypanosoma cruzi cruzain without detergent; hit rate 2.3% among 200,000; Potency, µM, for the others: max response, negative = inhibition, usual class: inhibitors; purified cruzain, Z-FR-AMC fluorescence, no detergent; AID 1476;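 note: plate controls were enzyme without inhibitor for no effect and buffer without enzyme for full effect; nearly all actives have a fitted effect of over 40% in size; top concentration of the series not given in the record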
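Detergent-free condition (0.00005% Triton X-100) in acetate buffer pH 5.5 with DTT. 1.5 nM enzyme and compound were pre-mixed 15 min, then 2 uM Z-FR-AMC substrate added; reaction progress from fluorescence change between first and third reads (60 s).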
LASV entry inh – Lassa virus entry inhibition; hit rate 1.2% among 300,000; AID 540256; Potency, µM (titrated, usually from 37.9 µM), inactives show at the top dose activity change, negative = inhibition, hits mostly inhibitors; Lassa virus pseudotype entry inhibition, cell reporter; control for the full effect not named in the record; active means well fitted inhibition curve with a large enough effect; inconclusive means small, poorly fitted or top-dose-only effect, or effect the other way; inactive means flat fitted curve, though single readings scatter; tested in HEK293 cells; note: % is set by controls: 0 for no effect and ±100 for the full control effect; nearly all actives have a fitted effect of over 50% in size; luciferase read-out
An asterisk follows results filed as active; u = inconclusive; x = no result given; & = joins results of further samples; [ ] = another dose, or the depositor's remark. Unless noted, calls come from the whole dose curve; as a rule, active = well fitted curve in the direction sought with a large enough effect; inconclusive = small, poorly fitted or top-dose-only effect, or another doubt; inactive = no such curve, though single readings can be large; an effect the other way counts as inactive or inconclusive. Potency is the fitted concentration of half-maximal effect.

SMILES,SARS PLpro yeast,NS1 function inh,MARV entry inh,Cruzain inh Det,RE007 growth inh,StopGo reporter,Cruzain noTriton,LASV entry inh
CCOc1ccccc1NC(=O)C1CCN(C(=O)NCc2ccccc2)CC1,7%,4%[9.22 µM],24%,-1.8%,6%,-25%,6%,u
COc1ccc(S(=O)(=O)N2CCN(C(=O)C3CCC3)CC2)cc1,-3%,x,4%[46.1 µM],x,0%,-19%,x,-9%
Cc1cc(CNC(=O)C2CCC(=O)N(Cc3ccccc3F)C2)on1 (stereo not given),2%,12%,26%,x,12%,-3%,x,12%
CCN(C(=O)COC(=O)CCCN1C(=O)c2cccc3cccc(c23)C1=O)C1CCS(=O)(=O)C1 (stereo not given),11%,x,14%,x,30%,-9%,x,3%
CC(C)Cn1cnc2sc3c(c2c1=N)CCCC3,7%,-1%,u,-6.0%,15%,-21%,4%,-10%
CSCc1ccc(C(=O)Nc2cc(C)cc(C)c2)cc1,-31%,-6%,u,-9.0%,-27%,0%,-7%,-6%
COc1ccccc1-c1cc(C(=O)NCCCn2ccnc2)no1,-4%,1%,-1%,5.2%,-9%,10%,-6%,7%
CCOC(=O)c1c(-c2ccccc2)oc2ccc(OC(C)C(=O)O)cc12 (stereo not given),-1%,-7%,12%[46.1 µM],x,9%,-14%,x,30%[46.1 µM]
O=C(Nc1ccc(Oc2ccc(C(F)(F)F)cn2)c(Cl)c1)C1CC1,-9%,x,u,x,4%,0%,x,u
COc1cc(-c2nc(-c3ccccc3)c(-c3ccc(Br)cc3)[nH]2)cc(OC)c1O,x,x,u,-5.7%,x,5%,-14%,u
O=C(NCCCn1ccnc1)c1cc(C(=O)C2CC2)c[nH]1,0%,1%,8%,3.5%,3%,3%,-3%,-2%
COCc1[nH]nc2c1C(c1ccc(OC)cc1)C(C#N)=C(N)O2 (stereo not given),-1%,9%,5%,-1.5%,1%,-13%,13%,11%
CCOC(=O)N/N=C/c1ccc(N2CCOCC2)s1,7%,3%,5%,-6.6%,4%,12%,-18%,0%
Cc1cccc(C)c1N(CC(=O)N1CCCC1)S(C)(=O)=O,0%,5%,u,x,9%,-13%,x,-3%
Cc1ccc(/C=C/c2onc(C)c2S(=O)(=O)N2CCC(C(=O)N3CCOc4ccc(C)cc43)CC2)cc1,x,x,x,-1.3%,x,-16%,-9%,0%[46.1 µM]
CCOc1ccc(S(=O)(=O)N(CC)CC(=O)NC2CC2)cc1,u,8%,u,x,-5%,-11%,x,22%[46.1 µM]
C=CCn1c(SCc2nc(N)nc(N(C)C)n2)nnc1-c1cccnc1,3%,4%,-1%,0.9%,-5%,-11%,1%,9%
Cc1cc(C)cc(S(=O)(=O)c2cnc3ccccc3n2)c1,1%,x,3%[46.1 µM],x,-17%,u,x,0%
CCn1cc(C(=O)NCCCOC(C)C)c(=O)c2cc(S(=O)(=O)N3CCOCC3)ccc21,1%,-2%,-23%&-23%[46.1 µM],-8.5%,1%,4%&-9%,u,-3%[46.1 µM]
Cc1cccc(NS(=O)(=O)c2ccc(C)c(C(=O)NCC(c3ccco3)N3CCCCC3)c2)c1 (stereo not given),-2%,x,u,x,-27%,-3%,x,-26%
Cc1ccc(NCCC(=O)c2ccc(Br)cc2)cc1,-7%,-3%,-1%,-0.9%,-19%,2%,20µM*,13%
O=C(NC(Cc1ccccc1)c1ccc2c(c1)OCCCO2)c1ccccc1F (stereo not given),-8%,-14%,u,0.7%,0%,18%,-7%,-16%[14.3 µM]
O=C(Cc1cccc(C(F)(F)F)c1)Nc1cccc(S(=O)(=O)N2CCCC2)c1,-3%,u,u,x,12%,28%,x,u
Cc1ccc(C)c(-c2csc(-c3cccnc3)n2)c1,-7%,-109%,x,x,-26%,5%,x,x
CN1CCOCCOCCN(C)C1=O,-9%,-2%,20%,3.8%,-13%,11%,-3%,0%
CCOc1cc(C(N)=O)cc(Br)c1OCC,-7%,2%,3%,-2.3%,-12%,-5%,4%,3%
CCCOc1ccc2ccccc2c1/C=N/n1c(C)nnc1-n1nc(C)cc1C,-10%,-12%,u,-5.4%,2%,-22%,u,u
O=C(Cn1c(=O)sc2ccccc21)Nc1ccccc1,x,-10%,3%,8.2%,13%,-17%,-12%,1%
COc1cc(Cl)cc(/C=N/NC(N)=O)c1O,0%,-2%,-27%[46.1 µM],x,-6%,-2%,x,1%
CO/N=C(\Cn1ncc(N2CCCC2)c(Cl)c1=O)c1ccc(Cl)cc1,-5%,-84%,u,-7.1%,4%,-17%,1%,-18%
CC(=O)c1cccc(NC(=O)CSc2ncc3c(n2)-c2cc(Cl)ccc2N(Cc2ccccc2)S3(=O)=O)c1,x,x,x,-2.2%,x,0%,-14%,u
COc1cccc(N(C(=O)c2cccs2)c2nc3ccccc3s2)c1,8%,-8%,-11%,2.2%,-5%,23%,-15%,u
O=C(CN1C(=O)COc2ccc(S(=O)(=O)N3CCCCCC3)cc21)N1CCN(c2cccc(Cl)c2)CC1,x,x,-3%[46.1 µM],-4.7%,x,-24%,-3%,-10%[46.1 µM]
O=C(Cn1c(=O)oc2ccc(Cl)cc21)NC1CCCCC1,-3%,-2%,x,x,12%,-17%,x,x
O=C(Nc1ccc(/C=C/c2nc3ccccc3o2)cc1)c1ccc(F)cc1,2%,26%,2%,2.2%,37%,27%,u,-4%
Cc1cc2nnc(SCCCCN3C(=O)c4ccccc4C3=O)n2c2ccccc12,-1%,9%,1%,4.4%,x,x,u,x
CSCC[C@H](NC(=O)[C@@H]1Cc2ccccc2CN1)C(=O)NC(C)c1ccccc1 (stereo not given in full),-1%,-3%,x,x,-1%,-15%,x,x
Cc1cc(=O)[nH]c(N2CCN(C(c3ccccc3)c3ccccc3)CC2)n1,-2%,-14%,-1%,0.3%,8%,-10%,-24%,-2%
Nc1nc(N2CCCCC2)nc(N(c2ccccc2)c2ccccc2)n1,4%,-5%,x,-5.4%,-2%,-24%,6%,x
N=c1n(Cc2ccccc2)c2ccccc2n1CC(O)COc1ccc(Cl)cc1Cl (stereo not given),0%,4%,u,x,15%,35µM*,x,u
CCOC(=O)c1ccc(N2CCN(c3cccc(Cl)c3)CC2)c(NC(=O)Nc2ccc(OC)cc2OC)c1,x,x,x,1.6%,x,-27%,-9%,u
CCOC(=O)N1CCC(N(CCN(C)C)C(=S)Nc2ccccc2OC)CC1,-1%,x,1%[46.1 µM],x,-13%,-15%,x,-2%[46.1 µM]
CCOC(=O)/C(C#N)=C/c1c(Oc2cccc(C)c2)nc2ccccn2c1=O,-1%,-2%,x,x,1%,-12%,x,x
CC1Cc2c([nH]c3ccccc23)C2c3ccccc3CN12 (stereo not given),-2%,0%,u,x,-7%,7%,x,u
CCOC(=O)N1CCN(C(=O)CSc2nc(=O)n3ccc(C)cc3n2)CC1,2%,x,-3%,x,5%,-10%,x,0%
C/C(=N\NC(=O)c1nn(C)c(C)c1Br)c1cccc(NC(=O)c2ccoc2C)c1,-8%,8%,-39%,0.7%,24%,26%,9%,11%
COc1cc(/C=C2\C(=N)N3N=C(N4CCOCC4)SC3=NC2=O)ccc1OC(=O)c1ccccc1,-6%,-12%,x,x,-7%,-15%,x,x
Cn1cc(C(=O)OCC2CCN(CCNS(C)(=O)=O)CC2)c2ccccc21,x,0%,u,3.8%&-1.7%,10%[18.4 µM],-8%&-5%,-4%&10%,-3%
COc1cc(OC)c2c(c1)OC(=O)CC2c1ccc2c(c1)OCO2 (stereo not given),3%,x,x,-0.8%,-2%,-14%,u,x
COCCCn1c(SCC(=O)NC(C)(C)C)nnc1-c1cccs1,1%,3%,2%,x,2%,5%,x,3%
CC(C)(C)NC(=O)COC(=O)c1ccccc1OCC(=O)Nc1ccc(Br)cc1,7%,-8%,u,-7.1%,-1%,1%,u,0%
CC(=O)c1ccc(S(=O)(=O)N2CCC3(CC2)CC(=O)c2ccccc2O3)cc1,2%,x,-20%,x,5%,-17%,x,-10%
Cc1cc(C)cc(OCC(=O)N/N=C/c2ccc([N+](=O)[O-])o2)c1,1%,x,u,x,25%,-10%,x,u
Cn1c(CCNC(=O)c2ccco2)nc2cc(NC(=O)NC3CCCCC3)ccc21,2%,-8%,12%,1.1%,2%,26%,1%,3%
N#CCCn1c(=S)[nH]c2ccccc21,0%,1%,6%,0.5%,4%,5%,-3%,-3%
COc1ccc(CCN(CC(=O)NC2CCCC2)C(=O)Cn2nnc(-c3ccc(C)o3)n2)cc1OC,1%,4%,0%[46.1 µM],x,4%,6%,x,-22%

(listing goes on)
SMILES,SARS PLpro yeast,NS1 function inh,MARV entry inh,Cruzain inh Det,RE007 growth inh,StopGo reporter,Cruzain noTriton,LASV entry inh
CCN(CC)CCNCC(O)(c1ccc(Cl)cc1)c1ccc(Cl)cc1,-1%,x,u,x,0%,0%,x,u
COCCNc1cc(C)c(C#N)c2nc3ccccc3n12,9%,-21%,0%&0%,u,-2%,-19%,17%,u
CCc1ccccc1NC(=O)CSc1ncc(S(=O)(=O)c2ccc(C(C)C)cc2)c(N)n1,x,x,x,-4.4%,x,u,-16%,-25%[46.1 µM]
CCOC(=O)c1cc(NC(=O)N(CC)CC)c(C)nc1C,7%,9%,u,2.7%,4%,5%,1%,18%
COc1ccc(-c2cc3c(=O)n(CC(=O)Nc4ccc(Cl)cc4)ncn3n2)cc1,-2%,-1%,x,x,-3%,2%,x,x
CCc1ccc(NC(=O)c2ccc(F)c(S(=O)(=O)N3CCC(C)CC3)c2)cc1,x,x,x,1.9%,x,u,1%,u
O=c1nc2ccc(Cl)cn2c2ccc(S(=O)(=O)N3CCOCC3)cc12,3%,18%,3%[46.1 µM],x,-10%,-13%,x,-7%[46.1 µM]
CCOC(=O)/C(C#N)=C/c1cc2ccccc2nc1N1CCCCC1,1%,-10%,13%,x,-8%,0%,x,-1%
C=C(C)c1cccc(C(C)(C)NC(=O)NC2CC(C)(C)NC(C)(C)C2)c1,0%,4%,x,x,7%,-23%,x,x
